Vaccinia stage = Vaccinia orthopox stage-specific inhibition; Vaccinia-infected cells, mCherry/Venus stage reporter fluorescence; active compounds read low; some inactives read as strong as hits; activity change (mCherry), % (concentration not given with the values); AID 1053133; 0.01% of 89,000 active;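 active means mCherry past -33% and 40 or more points under the early reporter, replicates agreeing; inconclusive means past -33% without that gap or agreement; tested in A549 cells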;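 further: scaled between vehicle wells and reference inhibitor wells; 23 nL library stock went into each well; one replicate is shown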
Vaccinia stage Venus = further read-out of Vaccinia stage, marked with its call; activity change (Venus), %; measured here: Venus reporter, other viral stage;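 negative = less Venus signal; first of two replicates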
* hit, by the source's call. Only part of the results is shown. The share of hits here may be higher or lower than overall.

The opening seven compounds as a preview:
How did COc1ccccc1C#Cc1ccc([C@@H]2[C@@H](CO)N3CCCCN(C(=O)C4CCC4)C[C@H]23)cc1 do in these assays?
Vaccinia stage: -35; Vaccinia stage Venus: -14

How did C[C@@H]1CN([C@@H](C)CO)C(=O)c2cccc(NC(=O)CCCCCC(=O)Nc3ccccc3N)c2O[C@H]1CN(C)CC1CCCCC1 do in these assays?
Vaccinia stage: inconclusive

Results for CCC(=O)N1C[C@H](C)[C@@H](OC)CN(C)C(=O)c2ccc(NC(=O)C3CCCCC3)cc2OC[C@@H]1C ?
Vaccinia stage: 0; Vaccinia stage Venus: 2

What do the screens show for `C[C@@H]1CN([C@@H](C)CO)S(=O)(=O)c2ccc(C#Cc3ccccc3)cc2O[C@H]1CN(C)C(=O)C1CC1`?
Vaccinia stage: -25; Vaccinia stage Venus: -22

Results for COc1ccc2c3c([nH]c2c1)[C@H](CO)N(Cc1cc(F)ccc1F)CC31CN(C(C)=O)C1 ?
Vaccinia stage: 4; Vaccinia stage Venus: 8

How did C[C@@H]1CN([C@@H](C)CO)C(=O)CCCn2nncc2CO[C@H]1CN(C)S(=O)(=O)c1cccs1 do in these assays?
Vaccinia stage: 2; Vaccinia stage Venus: 2

How did O=C(c1cccnc1)N1CC(=O)N2[C@H](CO)[C@@H](c3ccc(C#CCC4CCCC4)cc3)[C@@H]2C1 do in these assays?
Vaccinia stage: inconclusive

The whole of this part, repeating the preview:
How did COc1ccccc1C#Cc1ccc([C@@H]2[C@@H](CO)N3CCCCN(C(=O)C4CCC4)C[C@H]23)cc1 do in these assays?
Vaccinia stage: -35; Vaccinia stage Venus: -14

How did C[C@@H]1CN([C@@H](C)CO)C(=O)c2cccc(NC(=O)CCCCCC(=O)Nc3ccccc3N)c2O[C@H]1CN(C)CC1CCCCC1 do in these assays?
Vaccinia stage: inconclusive

Results for CCC(=O)N1C[C@H](C)[C@@H](OC)CN(C)C(=O)c2ccc(NC(=O)C3CCCCC3)cc2OC[C@@H]1C ?
Vaccinia stage: 0; Vaccinia stage Venus: 2

What do the screens show for `C[C@@H]1CN([C@@H](C)CO)S(=O)(=O)c2ccc(C#Cc3ccccc3)cc2O[C@H]1CN(C)C(=O)C1CC1`?
Vaccinia stage: -25; Vaccinia stage Venus: -22

Results for COc1ccc2c3c([nH]c2c1)[C@H](CO)N(Cc1cc(F)ccc1F)CC31CN(C(C)=O)C1 ?
Vaccinia stage: 4; Vaccinia stage Venus: 8

How did C[C@@H]1CN([C@@H](C)CO)C(=O)CCCn2nncc2CO[C@H]1CN(C)S(=O)(=O)c1cccs1 do in these assays?
Vaccinia stage: 2; Vaccinia stage Venus: 2

How did O=C(c1cccnc1)N1CC(=O)N2[C@H](CO)[C@@H](c3ccc(C#CCC4CCCC4)cc3)[C@@H]2C1 do in these assays?
Vaccinia stage: inconclusive

Results for COc1ccc(C#Cc2ccc3c(c2)O[C@@H](CN(C)C(C)=O)[C@H](C)CN([C@@H](C)CO)S3(=O)=O)cc1 ?
Vaccinia stage: -34; Vaccinia stage Venus: -29

How did COc1cccc(C#Cc2ccc([C@@H]3[C@H]4CN(C(=O)c5ccccc5)CC(=O)N4[C@H]3CO)cc2)c1 do in these assays?
Vaccinia stage: inconclusive

What do the screens show for `C[C@H](O)C#Cc1cnc2c(c1)C(=O)N([C@H](C)CO)C[C@@H](C)[C@@H](CN(C)C(=O)Cc1ccncc1)O2`?
Vaccinia stage: 22; Vaccinia stage Venus: 11

How did O=C(C[C@H]1C[C@@H]2c3cc(NC(=O)Nc4ccccc4)ccc3O[C@@H]2[C@H](CO)O1)NC1CCCCC1 do in these assays?
Vaccinia stage: 3; Vaccinia stage Venus: 1

What do the screens show for `COc1ccc(NC(=O)N(C)C[C@@H]2Oc3cc(-c4ccncc4)ccc3S(=O)(=O)N([C@H](C)CO)C[C@@H]2C)cc1`?
Vaccinia stage: -6; Vaccinia stage Venus: -7

Results for C[C@H](CO)N1C[C@H](C)[C@H](CN(C)CC2CC2)Oc2ccc(NS(=O)(=O)c3ccc(F)cc3)cc2C1=O ?
Vaccinia stage: 1; Vaccinia stage Venus: -16

How did CCC(=O)N1CCCCN2[C@H](C1)[C@@H](c1ccc(-c3cccc(C#N)c3)cc1)[C@@H]2CO do in these assays?
Vaccinia stage: 30; Vaccinia stage Venus: 0

How did C[C@H](CO)N1C[C@H](C)[C@H](CN(C)Cc2ccncc2)OCCCC[C@H](C)Oc2ccc(NS(=O)(=O)c3cn(C)cn3)cc2C1=O do in these assays?
Vaccinia stage: 6; Vaccinia stage Venus: 4

Results for COc1cccc(CN2CC3(CN(CC4CCOCC4)C3)c3c([nH]c4cc(OC)ccc34)[C@@H]2CO)c1 ?
Vaccinia stage: 5; Vaccinia stage Venus: 15

What do the screens show for `O=C(C[C@H]1C[C@@H]2c3cc(NS(=O)(=O)c4ccc(F)cc4)ccc3O[C@@H]2[C@@H](CO)O1)NCc1cccc(F)c1`?
Vaccinia stage: -4; Vaccinia stage Venus: -1

How did O=C(C[C@H]1C=C[C@@H](NC(=O)C2CCC2)[C@H](CO)O1)NCc1ccncc1 do in these assays?
Vaccinia stage: 17; Vaccinia stage Venus: 1

Results for O=C(Nc1cc(F)ccc1F)N[C@@H]1CC[C@H](CC(=O)N2CCc3ccccc3C2)O[C@@H]1CO ?
Vaccinia stage: -26; Vaccinia stage Venus: -17

What do the screens show for `CC=Cc1ccc2n(c1=O)C[C@H]1[C@H](CO)[C@@H](C(=O)NCC3CC3)N(C(C)=O)[C@@H]21` (mixture of isomers)?
Vaccinia stage: 11; Vaccinia stage Venus: 11

Results for O=C(c1ccccc1F)N1C[C@H]2[C@@H](c3ccccc31)[C@@H](CO)N2CC1CCCCC1 ?
Vaccinia stage: -31; Vaccinia stage Venus: -23

How did COc1ccccc1CNC(=O)C[C@H]1C[C@@H]2c3cc(NS(C)(=O)=O)ccc3O[C@@H]2[C@@H](CO)O1 do in these assays?
Vaccinia stage: 16; Vaccinia stage Venus: 10

What do the screens show for `COc1ccccc1NC(=O)N[C@@H]1CC[C@@H](CC(=O)NCc2ccc(Cl)c(Cl)c2)O[C@H]1CO`?
Vaccinia stage: 17; Vaccinia stage Venus: 17

How did C[C@@H]1CN([C@H](C)CO)C(=O)c2cc(NS(=O)(=O)c3cccs3)ccc2O[C@@H](C)CCCCO[C@@H]1CN(C)C(=O)c1ccccc1 do in these assays?
Vaccinia stage: 1; Vaccinia stage Venus: -2

How did CNC[C@@H]1Oc2ccc(NC(=O)Nc3cccc4ccccc34)cc2CC(=O)N([C@@H](C)CO)C[C@H]1C do in these assays?
Vaccinia stage: 10; Vaccinia stage Venus: 6

Results for CN1c2ccc(C#Cc3cccnc3)cc2[C@@H]2[C@@H](CCN2S(=O)(=O)c2cccc(F)c2)[C@H]1CO ?
Vaccinia stage: 10; Vaccinia stage Venus: 3

How did C/C=C/c1ccc2c(c1)O[C@H](CN(C)C(=O)NC1CCCC1)[C@@H](C)CN([C@H](C)CO)S2(=O)=O do in these assays?
Vaccinia stage: 18; Vaccinia stage Venus: 5

Results for O=C(N[C@H]1CC[C@@H](CCNS(=O)(=O)c2ccc(Cl)cc2)O[C@H]1CO)c1cccnc1 ?
Vaccinia stage: -4; Vaccinia stage Venus: -2

How did CN1CCN(C(=O)C[C@H]2C[C@H]3c4cc(NC(=O)C5CCOCC5)ccc4O[C@H]3[C@@H](CO)O2)CC1 do in these assays?
Vaccinia stage: 11; Vaccinia stage Venus: 7

Results for CCCN1[C@@H]2c3cccc(=O)n3C[C@H]1[C@H](CO)[C@H]2C(=O)N1CCCCC1 ?
Vaccinia stage: 11; Vaccinia stage Venus: 13

How did CN(C)CC(=O)Nc1ccc2c(c1)[C@H]1C[C@H](CC(=O)NCc3cccnc3)O[C@H](CO)[C@H]1O2 do in these assays?
Vaccinia stage: 7; Vaccinia stage Venus: 10

Results for C[C@H]1CN([C@@H](C)CO)C(=O)c2cc(NC(=O)Nc3ccc(F)cc3)ccc2O[C@@H]1CN(C)CC1CC1 ?
Vaccinia stage: 3; Vaccinia stage Venus: 0

What do the screens show for `COCC(=O)N1CC2(C1)CN(Cc1ccccc1Cl)[C@@H](CO)c1[nH]c3cc(OC)ccc3c12`?
Vaccinia stage: 19; Vaccinia stage Venus: 24

How did C[C@H](CO)N1C[C@H](C)[C@H](CN(C)C(=O)Nc2ccccc2)Oc2ccc(N(C)C)cc2CC1=O do in these assays?
Vaccinia stage: 8; Vaccinia stage Venus: 4

What do the screens show for `Cc1cccc(S(=O)(=O)N[C@H]2CC[C@H](CCNC(=O)c3cnccn3)O[C@H]2CO)c1`?
Vaccinia stage: 0; Vaccinia stage Venus: -4

What do the screens show for `COc1ccc2c3c(n(C)c2c1)[C@@H](CO)N(C(C)=O)CC31CN(Cc2nccs2)C1`?
Vaccinia stage: 9; Vaccinia stage Venus: 5

Results for CN1[C@@H]2c3ccc(-c4ccccc4)c(=O)n3C[C@H]1[C@H](CO)[C@H]2C(=O)NC1CCCCC1 ?
Vaccinia stage: 2; Vaccinia stage Venus: 1

What do the screens show for `N#C[C@@H]1[C@@H](c2ccc(C#CC3CC3)cc2)[C@H](CO)N1C(=O)c1cccc(F)c1`?
Vaccinia stage: -6; Vaccinia stage Venus: 8

How did O=C(Nc1ccccc1)N1C[C@@H]2[C@H](c3ccccc31)[C@@H](CO)N2Cc1ccc(F)cc1 do in these assays?
Vaccinia stage: -4; Vaccinia stage Venus: 1

How did C/C=C/c1ccc([C@H]2[C@@H](CO)N(C(C)=O)[C@H]2CN(C(=O)COC)C(C)C)cc1 do in these assays?
Vaccinia stage: 14; Vaccinia stage Venus: 9

3 records picked at random from the list so far, as already listed:
How did CN1CCN(C(=O)C[C@H]2C[C@H]3c4cc(NC(=O)C5CCOCC5)ccc4O[C@H]3[C@@H](CO)O2)CC1 do in these assays?
Vaccinia stage: 11; Vaccinia stage Venus: 7

How did COc1ccccc1CNC(=O)C[C@H]1C[C@@H]2c3cc(NS(C)(=O)=O)ccc3O[C@@H]2[C@@H](CO)O1 do in these assays?
Vaccinia stage: 16; Vaccinia stage Venus: 10

How did CNC[C@@H]1Oc2ccc(NC(=O)Nc3cccc4ccccc34)cc2CC(=O)N([C@@H](C)CO)C[C@H]1C do in these assays?
Vaccinia stage: 10; Vaccinia stage Venus: 6

Next part.
What do the screens show for `CC(C)NC(=O)N(C)C[C@H]1Oc2ccc(NC(=O)CCN3CCOCC3)cc2C(=O)N([C@@H](C)CO)C[C@@H]1C`?
Vaccinia stage: 12; Vaccinia stage Venus: 11

How did CC(C)NC(=O)N[C@H]1CC[C@@H](CCNC(=O)C2CCOCC2)O[C@@H]1CO do in these assays?
Vaccinia stage: 7; Vaccinia stage Venus: 16

What do the screens show for `CC(C)NC(=O)Nc1ccc2c(c1)C(=O)N([C@H](C)CO)C[C@@H](C)[C@@H](CN(C)Cc1ccccc1)OCCCC[C@H](C)O2`?
Vaccinia stage: -7; Vaccinia stage Venus: -2

What do the screens show for `COCC(=O)N(C)C[C@@H]1Oc2cc(Br)ccc2S(=O)(=O)N([C@@H](C)CO)C[C@H]1C`?
Vaccinia stage: 33; Vaccinia stage Venus: 17

Results for C[C@H](CO)N1C[C@H](C)[C@H](CN(C)S(=O)(=O)c2ccccc2F)Oc2ncc(C#Cc3ccncc3)cc2C1=O ?
Vaccinia stage: 16; Vaccinia stage Venus: 8

Results for C[C@H](CO)N1C[C@H](C)[C@@H](CN(C)C(=O)c2ccccc2F)Oc2cc(C#CCN(C)C)ccc2S1(=O)=O ?
Vaccinia stage: 19; Vaccinia stage Venus: -2

Results for Cn1cnc(S(=O)(=O)N2CCCCN3[C@H](C2)[C@H](c2ccc(C#CC4CCCC4)cc2)[C@@H]3CO)c1 ?
Vaccinia stage: -6; Vaccinia stage Venus: 0

What do the screens show for `O=C(C[C@@H]1CC[C@H]2[C@@H](COC[C@@H](O)CN2Cc2cc(F)cc(F)c2)O1)NC1CCCC1`?
Vaccinia stage: 5; Vaccinia stage Venus: 8

How did O=C(NCC1CC1)[C@H]1[C@H](CO)[C@H]2Cn3c(cccc3=O)[C@H]2N1Cc1cncnc1 do in these assays?
Vaccinia stage: -3; Vaccinia stage Venus: 4

How did COCC(=O)N1CCCCN2[C@@H](CO)[C@H](c3ccc(C#Cc4ccc(OC)cc4)cc3)[C@@H]2C1 do in these assays?
Vaccinia stage: -20; Vaccinia stage Venus: -30

Results for C[C@H]1CCCCO[C@H](CN(C)C(=O)NC2CCCCC2)[C@@H](C)CN([C@@H](C)CO)C(=O)c2cc(NC(=O)Nc3ccc4c(c3)OCO4)ccc2O1 ?
Vaccinia stage: -15; Vaccinia stage Venus: -25

Results for Cn1cnc(S(=O)(=O)N2CCCCN3[C@H](CO)[C@H](c4ccc(-c5ccccc5)cc4)[C@H]3C2)c1 ?
Vaccinia stage: -23; Vaccinia stage Venus: -14

What do the screens show for `CC(C)OC(=O)N(C)C[C@@H]1OCc2cn(nn2)CCCC(=O)N([C@@H](C)CO)C[C@@H]1C`?
Vaccinia stage: 1; Vaccinia stage Venus: 9

What do the screens show for `COc1ccc(NC(=O)Nc2ccc3c(c2)C(=O)N([C@H](C)CO)C[C@@H](C)[C@@H](CN(C)S(=O)(=O)c2ccc(Cl)cc2)OCCCC[C@H](C)O3)cc1`?
Vaccinia stage: 27; Vaccinia stage Venus: 13

What do the screens show for `Cc1ccccc1S(=O)(=O)NCC[C@@H]1CC[C@H](NC(=O)Nc2cccc(F)c2)[C@@H](CO)O1`?
Vaccinia stage: -19; Vaccinia stage Venus: -7

How did Cc1noc(C)c1S(=O)(=O)Nc1ccc2c(c1)CC(=O)N([C@H](C)CO)C[C@@H](C)[C@H](CN(C)S(=O)(=O)c1ccc(Cl)cc1)O2 do in these assays?
Vaccinia stage: 8; Vaccinia stage Venus: 7

How did COc1ccc(S(=O)(=O)N2CCCCN3[C@H](CO)[C@H](c4ccc(C#CCC(C)C)cc4)[C@@H]3C2)cc1 do in these assays?
Vaccinia stage: inconclusive

How did O=C(Cc1ccccc1)N1CC[C@@H]2[C@H]1c1cc(-c3cccc(F)c3)ccc1N[C@@H]2CO do in these assays?
Vaccinia stage: 6; Vaccinia stage Venus: 8
